Screening results as filed in PubChem.
Cruzain inh noDet: blocks cruzain activity in detergent-free assay | purified cruzain, Z-FR-AMC fluorescence, no detergent | 2.3% of 200,000 active | Potency, µM, without a hit: max response, negative = inhibition, usual class: inhibitors | P25779 | AID 1476;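 note: plate controls were enzyme without inhibitor for no effect and buffer without enzyme for full effect; nearly all actives have a fitted effect of over 40% in size; top concentration of the series not given in the record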
Target sequence (P25779 123-467 limits assumed): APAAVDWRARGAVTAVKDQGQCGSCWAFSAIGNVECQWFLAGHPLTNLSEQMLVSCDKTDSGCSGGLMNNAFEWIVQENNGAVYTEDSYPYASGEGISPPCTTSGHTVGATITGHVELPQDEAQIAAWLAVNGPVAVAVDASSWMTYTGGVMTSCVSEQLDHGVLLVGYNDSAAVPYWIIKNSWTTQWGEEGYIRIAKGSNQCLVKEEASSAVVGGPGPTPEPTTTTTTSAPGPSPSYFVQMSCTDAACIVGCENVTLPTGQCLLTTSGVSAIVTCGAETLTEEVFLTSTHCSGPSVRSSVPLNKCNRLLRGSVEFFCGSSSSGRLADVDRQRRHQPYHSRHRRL
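Detergent-free condition (0.00005% Triton X-100) in acetate buffer pH 5.5 with DTT. 1.5 nM enzyme and compound were pre-mixed 15 min, then 2 uM Z-FR-AMC substrate added; reaction progress from fluorescence change between first and third reads (60 s).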
SARS PLP yeast: inhibitors of SARS-CoV papain-like protease in yeast; S. cerevisiae expressing SARS-CoV PLpro, growth rescue; control for the full effect not named in the record; 0.19% of 330,000 active; Potency, µM (doses to about 32.9 µM), for inactives: top-dose activity, positive = growth rescue; active means well fitted rising curve with a large enough effect; inconclusive means small, poorly fitted or top-dose-only effect; inactive means no such curve, though single readings can be large or run the other way; note: 0% is about no effect; nearly all actives have a fitted effect of over 55% in size; growth read by luminescence after 48 h
RE007 growth inh: less growth of the S. pombe RE007 Vpr strain; S. pombe RE007 Vpr strain, BacTiter-Glo ATP luminescence, 24 h; control for the full effect not named in the record; Potency, µM (top dose mostly 92.2 µM), for inactives: at the top dose activity change, negative = less growth; 0.21% of 360,000 active; AID 651644; active = well fitted falling curve with a large enough effect; inconclusive = small, poorly fitted or top-dose-only effect; inactive = no such curve, though single readings can be large or run the other way;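 note: % is set by controls: 0 for no effect and ±100 for the full control effect; nearly all actives have a fitted effect of over 50% in size; the assay follows cell death caused by Vpr and the record does not say whether a fall means rescue or toxicity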
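Fission yeast RE007 carrying one integrated HIV-1 vpr copy, seeded at OD 0.01 in PMG+AL medium with 23 nL pinned compound. Grown 24 h at 30 degrees; viability read by BacTiter-Glo luminescence after 5 min.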
LASV entry inh: blocks Lassa virus binding to or entry into cells; Lassa virus pseudotype entry inhibition, cell reporter; control for the full effect not named in the record; 1.2% of 300,000 active; AID 540256; Potency, µM (doses to about 37.9 µM), inactives show top-dose activity change, negative = inhibition, hits mostly inhibitors; active means well fitted inhibition curve with a large enough effect; inconclusive means small, poorly fitted or top-dose-only effect, or effect the other way; inactive means flat fitted curve, though single readings scatter; tested in HEK293 cells; note: % is set by controls: 0 for no effect and ±100 for the full control effect; nearly all actives have a fitted effect of over 50% in size; luciferase read-out
NS1 function inh: inhibitors of influenza NS1 protein function. S. cerevisiae slowed by influenza A NS1, growth recovery by OD600. Potency, µM (titrated, usually from 46.1 µM), without a hit: at the highest dose activity, positive = more growth. 0.4% of 270,000 active. AID 2326; active means well fitted rising curve with a large enough effect; inconclusive means small, poorly fitted or top-dose-only effect; inactive means no such curve, though single readings can be large or run the other way; note: nearly all actives have a fitted effect of over 50% in size
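Recovery from NS1-induced slow growth read by OD600 in budding yeast switched to galactose assay medium (pH 6.0, -URA) at 1:100 dilution. Compound 23 nl per well; the matching strain lacking NS1 serves as control.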
2A StopGo: FMDV 2A StopGo reporter, luciferase signal; AID 1159524; 1.2% of 410,000 active; Potency, µM (top dose mostly 57.9 µM), inactives show top-dose signal change, negative = less light; human cells with a luciferase reporter of 2A StopGo recoding; control for the full effect not named in the record; active = well fitted falling curve with a large enough effect; inconclusive = small, poorly fitted or top-dose-only effect; inactive = no such curve, though single readings can be large or run the other way; tested in HEK293T cells; note: % is set by controls: 0 for no effect and ±100 for the full control effect; nearly all actives have a fitted effect of over 45% in size; luciferase light after 4 h
Marburg entry inh: Marburg virus entry inhibition | Marburg virus pseudotyped entry inhibition, cell reporter; control for the full effect not named in the record; about a third of the inactives were read at about 46 µM | Potency, µM (series often up to 37.8 µM), without a hit: top-dose activity change, negative = inhibition, hits mostly inhibitors | 1.8% of 300,000 active | AID 540276; active = well fitted inhibition curve with a large enough effect; inconclusive = small, poorly fitted or top-dose-only effect, or effect the other way; inactive = flat fitted curve, though single readings scatter; tested in HEK293 cells; about a fifth of its hits are not listed in these tables; note: % is set by controls: 0 for no effect and ±100 for the full control effect; luciferase read-out
Cruzain inh Det: inhibitors of Trypanosoma cruzi cruzain with detergent; P25779; purified cruzain, Z-FR-AMC fluorescence, 0.01% Triton; Potency, µM, for inactives: max response, negative = inhibition, hits mostly inhibitors; 0.43% of 200,000 active;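 note: plate controls were neutral wells for no effect and buffer without enzyme for full effect; nearly all actives have a fitted effect of over 40% in size; top concentration of the series not given in the record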
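In this qHTS format, compounds are incubated with 1.5 nM cruzain for 15 min at room temperature before 2 uM Z-FR-AMC is added. Release of AMC is followed at 360/450 nm, and progress is taken as the 60 s fluorescence difference.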
* marks the source's active call; other numbers are inactive results; ? = inconclusive; nt = no result given; & = joins results of further samples; [ ] = remark or other dose. Unless noted, calls come from the whole dose curve; as a rule, active = well fitted curve in the direction sought with a large enough effect; inconclusive = small, poorly fitted or top-dose-only effect, or another doubt; inactive = no such curve, though single readings can be large; an effect the other way counts as inactive or inconclusive. Potency is the fitted concentration of half-maximal effect.

SMILES	Cruzain inh noDet	SARS PLP yeast	RE007 growth inh	LASV entry inh	NS1 function inh	2A StopGo	Marburg entry inh	Cruzain inh Det
Cc1ccc(NS(=O)(=O)c2cc(C(=O)N3CCOCC3)ccc2C)cc1C	2%	5%	-3%	0%	1%	15%	-17%[46.1 µM]	5.3%
CC(=O)c1cccc(NC(=O)c2cc(C)nn2-c2ccccc2)c1	nt	1%	15%	4%	-2%	37%[activator]	?	nt
CCOC(=O)C1=C(C)C(c2ccccc2OC)NC(=O)N1 (stereo not drawn)	-11%	nt	-12%	2%	9%	-13%	4%	5.6%
CN(C(=O)Cn1cc([N+](=O)[O-])ccc1=O)C1CCCCC1	nt	-7%	0%	9%	nt	-18%	1.3µM*	nt
CCOC(=O)c1ccc(CN(Cc2ccc(Cl)cc2Cl)S(=O)(=O)c2ccc(F)c(C)c2)cc1	9%	nt	nt	0%[46.1 µM]	nt	-7%	nt	0.3%
CCOc1cc(C2C3=C(CC(C)(C)CC3=O)OC3=C2C(=O)CC(C)(C)C3)cc([N+](=O)[O-])c1O	nt	0%	5%	7%	8%	19%	0%[46.1 µM]	nt
N/C(COc1cccc(Cl)c1)=N\NS(=O)(=O)c1ccccc1	3%	-1%	34%	-3%	2%	-10%	15%	-3.7%
CC(C)(C)NC(=O)C(c1cccnc1)N(C(=O)c1ccc(Cl)nc1)C1CCCC1 (stereo not drawn)	nt	0%	-15%	2%	2%	-10%	4%	nt
COc1ccc(CN(Cc2ccccn2)C(=O)CN2C(=O)COc3ccccc32)cc1	-2%	-4%	9%	-20%	-10%	-17%	-2%	9.9%
CC1(C)CC(NC(=O)c2cccc(Cl)c2)CC(C)(C)N1	nt	4%	-2%	-7%	-1%	-4%	?	nt
COc1ccc(CCNC(=O)COC(=O)/C=C/c2ccc(OCC#N)c(OC)c2)cc1	-8%	9%	-10%	-3%	10%	-6%	21%	-5.3%
O=C(Nc1ccc(Cl)cc1)c1cc2c(Cl)nc3ccccc3c2s1	2%	nt	nt	-5%[46.1 µM]	nt	-8%	0%[46.1 µM]	1.7%
CC(Sc1nc(N2CCOCC2)c2c(c1C#N)CC(C)(C)OC2)C(=O)O (stereo not drawn)	nt	-2%	-3%	19%[46.1 µM]	1%	-18%	15%[46.1 µM]	nt
Cc1ccnc(NS(=O)(=O)c2ccc(NS(=O)(=O)c3ccc([N+](=O)[O-])cc3)cc2)n1	nt	3%	1%	7%	4%	3%	?	nt
Cc1cc(C)n2nc(-c3ccco3)nc2n1	nt	-2%	2%	6%	nt	21%	?	nt
COc1ccc(NC(=O)CSCCc2ccccn2)cc1OC	nt	0%	-28%	1%[46.1 µM]	nt	8%	-21%[46.1 µM]	nt
CC(=O)c1cccc(Nc2cc(C)nc3ccc(C)cc23)c1	nt	0%	2%	-6%	0%	-23%	?	nt
O=C(Cc1ccc(Cl)c(Cl)c1)OCCN1CCCC1	7%	nt	nt	nt	-9%	nt	21%&21%&21%	-5.5%
Cc1ccc(C)c(S(=O)(=O)C(C#N)c2nc3ccccc3nc2N2CCOCC2)c1 (stereo not drawn)	?	-1%	-9%	-2%	-134%	?	?	-9.6%
CC(C)CC(=O)Nc1ccc(C(=O)OCc2cc(=O)n3nc(C4CCCCC4)sc3n2)cc1	2%	nt	nt	6%[46.1 µM]	nt	-19%	nt	0.6%
O=c1c2ccccc2[nH]c(=S)n1Cc1ccccc1	nt	3%	-7%	-1%[46.1 µM]	21%	23%	21%[46.1 µM]	nt
Cc1ccc(NC(=O)CCCCCNS(=O)(=O)c2ccc(C)cc2)cc1	-8%	-5%	13%	-24%	-1%	-26%	?	-4.1%
CCOc1ccc(C(=O)Nc2c(C(=O)N3CCC(N4CCCCC4)CC3)oc3ccccc23)cc1	nt	1%	-7%	nt	0%	5%	nt	nt
Cc1c(N(C(=O)CNC(=O)c2ccccc2)C2(C(=O)NC3CCCC3)CCCCC2)c(=O)n(-c2ccccc2)n1C	nt	9%	-2%	12%	nt	13%	-3%[46.1 µM]	nt
CC(NC(=O)c1ccc(Cl)cc1)C1CC2CCC1C2 (stereo not drawn)	nt	-2%	18%	-2%[46.1 µM]	6%	1%	9%[46.1 µM]	nt

The final four records of the part before come first, to join the parts.
SMILES	Cruzain inh noDet	SARS PLP yeast	RE007 growth inh	LASV entry inh	NS1 function inh	2A StopGo	Marburg entry inh	Cruzain inh Det
Cc1ccc(NC(=O)CCCCCNS(=O)(=O)c2ccc(C)cc2)cc1	-8%	-5%	13%	-24%	-1%	-26%	?	-4.1%
CCOc1ccc(C(=O)Nc2c(C(=O)N3CCC(N4CCCCC4)CC3)oc3ccccc23)cc1	nt	1%	-7%	nt	0%	5%	nt	nt
Cc1c(N(C(=O)CNC(=O)c2ccccc2)C2(C(=O)NC3CCCC3)CCCCC2)c(=O)n(-c2ccccc2)n1C	nt	9%	-2%	12%	nt	13%	-3%[46.1 µM]	nt
CC(NC(=O)c1ccc(Cl)cc1)C1CC2CCC1C2 (stereo not drawn)	nt	-2%	18%	-2%[46.1 µM]	6%	1%	9%[46.1 µM]	nt
COc1ccc(-n2c(CN3CCN(c4ccccc4)CC3)nc3ccc([N+](=O)[O-])cc3c2=O)c(OC)c1	nt	-2%	3%	?	-1%	-8%	-15%[46.1 µM]	nt
CCOC(=O)c1c(NC(C)=O)c2c3c(sc2n1Cc1cccc(Cl)c1)CCCC3	6%	nt	nt	nt	nt	-4%	?	-3.2%
Cc1occc1C(=O)Nc1ccc2c(c1)CCC2	5%	-25%	?	-20%	-93%	39%[activator]	3%	-4.0%
Clc1ccc(OCCCN2CCCC2)cc1Cl	-5%	-5%	-8%	?	8%	-5%	?	-6.6%
C/C(=N\Nc1cc(N2CCOCC2)ncn1)c1ccc(O)cc1	nt	7%	-10%	-1%	16%	13%	?	nt
O=C(CCCN1C(=O)/C(=C/c2ccccc2Cl)SC1=S)NNC(=O)c1ccc(Cl)cc1	nt	1%	6%	nt	3%	7.9µM*	nt	nt
C=CCn1c(C)nc2c(sc3nc4c(cc32)COC(C)(C)C4)c1=O	nt	1%	24%	-14%[46.1 µM]	0%	5%	?	nt
Cc1cc(C)n2nc(Cc3ccccc3)nc2n1	-4%	1%	21%	4%	4%[9.22 µM]	2%	?	0.3%
CC(Sc1ccc(Cl)cc1)C(=O)NNC(=O)c1ccco1 (stereo not drawn)	nt	-4%	4%	-1%	nt	-10%	20%	nt
COc1ccc(OC)c(CCNC(=O)c2cccc(NC3=NC4CS(=O)(=O)CC4S3)c2)c1 (stereo not drawn)	nt	-5%	-2%	nt	-1%	36%[activator]	nt	nt
Cc1ccc(SCc2nc(-c3ccncc3)no2)cc1	-1%	-5%	-27%	-4%	-9%	-21%	?	0.8%
Cc1ccc(S(=O)(=O)N2c3ccc(S(N)(=O)=O)cc3CC2C)cc1 (stereo not drawn)	-4%	-13%	-13%	?	?	2%	?	-2.3%
Cc1cccc(C(=O)NCC(c2ccc3c(c2)OCO3)N2CCN(c3ccccc3F)CC2)c1 (stereo not drawn)	17%	nt	nt	-20%[46.1 µM]	nt	?	nt	-6.5%
Cc1nc(C)n(CCNC(=O)c2ccco2)n1	nt	11%	3%	nt	18%	-11%	nt	nt
CC(=O)N1CCN(C(=O)CCc2nc3ccccc3c(=O)[nH]2)CC1	-14%	1%	-8%	15%	4%	-25%	21%	0.4%
CC1CN(C(=O)CCC(=O)NCc2ccc(Cl)cc2)c2ccccc2O1 (stereo not drawn)	nt	-2%	3%	nt	-15%	-24%	nt	nt
COc1ccccc1N(CC(=O)NCCSCc1ccccc1Cl)S(C)(=O)=O	?	4%	-4%	-25%&-18%[46.1 µM]	-2%	?	?	-3.6%
Cc1cc(C)c(NC(=S)N(C)C)c(C)c1	nt	-1%	-14%	nt	-5%	-7%	nt	nt
COc1cccc(C(=O)N2CCOCC2)c1OC	nt	0%	9%	?	2%	-5%	5%[46.1 µM]	nt
Cc1c(C)n2c(SCC(=O)N3CCOCC3)nnc2[nH]c1=O	nt	6%	0%	-2%	nt	-9%	6%	nt
COc1ccccc1CN1C(=NC(=O)C2CCCCC2)SC2CS(=O)(=O)CC21 (stereo not drawn)	nt	11%	-6%	3%[46.1 µM]	9%	-19%	10%[46.1 µM]	nt
CCNc1ccc(P(=O)(c2ccccc2)c2ccccc2)cc1	nt	0%	10%	-8%	13%	-10%	?	nt
C=CCN1CC(O)=C(c2nc3ccccc3[nH]2)C1=N	nt	0%	-12%	?	nt	11%	?	nt
Clc1ccc(CSc2ncnc3c2ncn3C2CCCCO2)cc1 (stereo not drawn)	nt	nt	7%	1%[46.1 µM]	nt	-4%	?	nt
COc1ccc(CN(Cc2ccncc2)C(=O)CCC(=O)O)cc1	8%	4%	-5%	3%	-44%	8%	-1%	2.2%
CC1=NN(c2ccccc2)C(=O)/C1=C\c1cn(CCC#N)nc1-c1ccc(Cl)cc1	?	-4%	1%	18%	2%	0%	-1%[46.1 µM]	-3.9%

A second format for part of the listing above.
The line under a structure holds: Cruzain inh noDet, SARS PLP yeast, RE007 growth inh, LASV entry inh, NS1 function inh, 2A StopGo, Marburg entry inh, Cruzain inh Det
- C=CCn1c(C)nc2c(sc3nc4c(cc32)COC(C)(C)C4)c1=O
    nt, 1%, 24%, -14%[46.1 µM], 0%, 5%, ?, nt
- COc1ccccc1N(CC(=O)NCCSCc1ccccc1Cl)S(C)(=O)=O
    ?, 4%, -4%, -25%&-18%[46.1 µM], -2%, ?, ?, -3.6%
- Cc1cccc(C(=O)NCC(c2ccc3c(c2)OCO3)N2CCN(c3ccccc3F)CC2)c1 (stereo not drawn)
    17%, nt, nt, -20%[46.1 µM], nt, ?, nt, -6.5%
- Cc1ccc(SCc2nc(-c3ccncc3)no2)cc1
    -1%, -5%, -27%, -4%, -9%, -21%, ?, 0.8%
- COc1ccc(CN(Cc2ccncc2)C(=O)CCC(=O)O)cc1
    8%, 4%, -5%, 3%, -44%, 8%, -1%, 2.2%
